# VDR inh: Inhibitors of the vitamin D receptor (VDR): qHTS. VDR-SRC2-3 peptide fluorescence polarization, 2 h. Potency, µM, for inactives: max response, negative = inhibition, hits mostly inhibitors. Vitamin D3 receptor (Homo sapiens), P11473. 400,000 tested, 0.93% active. AID 504847, 2011; active means well fitted inhibition curve with a large enough effect; inconclusive means small, poorly fitted or top-dose-only effect, or another doubt; inactive means no such curve, though single readings can be large or run the other way; further: series mostly up to about 120 µM
# Target sequence (P11473 whole entry, looked up): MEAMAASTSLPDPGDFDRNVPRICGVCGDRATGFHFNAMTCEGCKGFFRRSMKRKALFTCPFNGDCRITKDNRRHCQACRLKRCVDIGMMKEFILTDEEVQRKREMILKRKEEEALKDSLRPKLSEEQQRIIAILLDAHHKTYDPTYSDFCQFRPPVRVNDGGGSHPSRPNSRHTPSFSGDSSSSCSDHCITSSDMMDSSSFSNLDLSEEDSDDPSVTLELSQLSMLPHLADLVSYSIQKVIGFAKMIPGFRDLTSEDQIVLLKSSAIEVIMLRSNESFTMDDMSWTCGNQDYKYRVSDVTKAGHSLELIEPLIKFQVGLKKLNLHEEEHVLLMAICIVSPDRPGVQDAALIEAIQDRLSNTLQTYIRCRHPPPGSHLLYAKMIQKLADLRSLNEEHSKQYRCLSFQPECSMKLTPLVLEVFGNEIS
#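 Reagent solutions, kept cold and dark, are dispensed first; compounds are then pinned in at 23 nl, plates briefly spun, and incubated 2 h at ambient temperature. Inhibition of VDR–SRC2-3 peptide binding is read by fluorescence polarization.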
# Starred values were filed as active, the others as inactive; ? = inconclusive; & = joins results of further samples. On the % scale 0 is the no-effect control and ±100 the full control effect; potency means the concentration at half of the fitted maximal effect. Not all compounds are listed; rates above refer to the full screens.
SMILES,VDR inh
Cc1cccc(-c2nc(=S)c3c(n2Cc2ccco2)CCCC3)c1,4.8%
CC(=O)O[C@@H]1CC[C@@]2(C)[C@H](C1)[C@H](OC(C)=O)C[C@@H]1[C@@H]2C[C@H]2[C@@H]3CN4C[C@H](C)CC[C@H]4[C@H](C)[C@H]3CC[C@@]12O,10.5%
O=C(c1ccccc1Br)N1CCc2c([nH]c3ccccc23)C1,26.6%
CC(C)(C)OC(=O)NCCCCCNC(=O)c1nc[nH]c1C(=O)NCC(=O)OCc1ccccc1,-3.5%
COc1ccc(N2C3=C(C(=O)CC(C)(C)C3)C(c3cnn(C)c3)C3=C2CC(C)(C)CC3=O)cc1,-1.3%
O=C(NNCS(=O)(=O)O)c1ccncc1,1.3%
CCC(C#CCN1CCOCC1)(CC)OCCC#N,11.8%
Cc1csc(SCC(=O)Nc2ccc3[nH]c(=O)[nH]c3c2)n1,-11.0%
COc1ccc(OC)c(CCNC(=O)CCn2ccc3cc(S(=O)(=O)N4CCCC4)ccc32)c1,-7.5%
CCCCN(C)C(=O)c1cc2cc3cc(OC)ccc3nc2o1,11.2%
COc1ccc(S(=O)(=O)N2CCc3ccccc32)cc1NC(C)=O,18.4%
O=C(NCCCN1CCOCC1)c1ccc(NS(=O)(=O)c2cccc([N+](=O)[O-])c2)cc1,-14.5%
O=C(CCN1c2ccccc2Sc2ccccc21)OCc1nnc(-c2ccccc2)o1,-15.9%
Cc1nc(CSc2nnc3scc(-c4ccc(Cl)cc4)n23)cs1,2.2%
c1cncc(-c2nnc(C3CCCCC3)o2)c1,-15.7%
CC(C)c1ccc(NC2CCCN(C(=O)c3n[nH]c4c3CCC4)C2)cc1 (stereo not drawn),12.1%
CCN1C(=O)c2ccccc2Sc2ccc(NC(=O)c3cccc(C)c3)cc21,13.7%
CCCCC(CC)CCC(CC(C)C)OS(=O)(=O)O (stereo not drawn),?
Cc1ccc(Nc2cc(C)nc3ncnn23)cc1,-19.7%
CCOC(=O)c1[nH]c(C)c(/C(O)=C2\C(=O)C(=O)N(CCN(C)C)C2c2cccc(OC)c2OC)c1C (stereo not drawn),-0.7%
CCCCNCCOCCOc1ccc(C)cc1Br,0.8%
COc1ccccc1OCc1cc(C(=O)NCc2ccc(N3CCCC3=O)cc2)no1,10.9%
Cc1nc(-n2[nH]c3c(c2=O)CCCC3)[nH]c(=O)c1Cc1ccccc1,-7.8%
O=C(NC(=S)NCC1COc2ccccc2O1)c1ccccc1 (stereo not drawn),6.6%

# Copied from the list:
# CCCCNCCOCCOc1ccc(C)cc1Br – VDR inh = 0.8%
# Cc1nc(-n2[nH]c3c(c2=O)CCCC3)[nH]c(=O)c1Cc1ccccc1 – VDR inh = -7.8%
# O=C(CCN1c2ccccc2Sc2ccccc21)OCc1nnc(-c2ccccc2)o1 – VDR inh = -15.9%
# Cc1ccc(Nc2cc(C)nc3ncnn23)cc1 – VDR inh = -19.7%
# O=C(NC(=S)NCC1COc2ccccc2O1)c1ccccc1 (stereo not drawn) – VDR inh = 6.6%
# CCN1C(=O)c2ccccc2Sc2ccc(NC(=O)c3cccc(C)c3)cc21 – VDR inh = 13.7%

# More structures.
SMILES,VDR inh
O=C(O)[C@@H]1CSCN1,12.7%
COc1cc(O)c2c(=O)c(O)c(-c3ccc(O)c(O)c3)oc2c1,-0.7%&-23.9%
O=C(Nc1cccc(Cl)c1)OCc1cnc(Cl)s1,6.8%
Cc1cc(C)c2c(=O)n(CC(=O)NCCCN3CCOCC3)sc2n1,?
CC[C@H](C)[C@H](NC(=O)[C@H](Cc1cnc[nH]1)NC(=O)[C@@H](N)CCC(=O)O)C(=O)N1CCC[C@H]1C(=O)N[C@@H](C)C(=O)O,2.5%
Cc1ccc(N2C(=O)c3cccc4c(Oc5ccccc5[N+](=O)[O-])ccc(c34)C2=O)c(C)c1,8.2%
N/C(=N\N=C\c1ccc([N+](=O)[O-])cc1)c1nonc1N,-15.4%
O=[N+]([O-])c1ccccc1N/N=C/c1ccc2c(c1)OCO2,18.8%
CC1CCCCN1c1cc(C#N)c(C#N)cc1[N+](=O)[O-] (stereo not drawn),-23.8%
O=C1CC(c2ccc(Cl)cc2)SC(N(c2ccccc2)c2ccccc2)=N1 (stereo not drawn),-9.1%
Cc1ccccc1S(=O)(=O)Cc1ccc(C(=O)N2CCN(C3CCCCC3)CC2)o1,-6.4%
O=C1/C(=C/c2ccncc2)CCc2ccccc21,?

# Gathered by group: the entries above with bromine.
SMILES,VDR inh
O=C(c1ccccc1Br)N1CCc2c([nH]c3ccccc23)C1,26.6%
CCCCNCCOCCOc1ccc(C)cc1Br,0.8%

# Following part
SMILES,VDR inh
CCOC(=O)C1CCCN(CCc2ccccc2)C1 (stereo not drawn),-6.9%
CCOc1ccc(NC(=O)c2cccc3c(=O)c4c([nH]c23)CCCC4)cc1,9.9%
CN(CC(=O)N1CCN(Cc2ccccc2)CC1)S(=O)(=O)c1ccc(Br)cc1,-6.4%
Cc1cc(C)cc(CC2CC(=O)N(c3ccc4c(c3)OCCO4)C2=O)c1 (stereo not drawn),2.9%
O=C(Cn1c(=O)n(CCCCC(=O)NC2CCCC2)c(=O)c2ccccc21)NCCC1=CCCCC1,5.2%
Cn1nnc2c(N3CCN(c4ccccc4)CC3)ncnc21,9.0%
CCC(CC)c1nnc(NC(=O)c2c(C)nn(Cc3ccccc3Cl)c2C)s1,14.5%
CCOCCc1nnc(NC(=O)CS(=O)(=O)c2ccc(C)cc2)s1,1.5%
COc1ccccc1NS(=O)(=O)c1cccc(NS(=O)(=O)c2ccc(Cl)c(C(=O)O)c2)c1,6.1%
FC(F)(F)c1nc2ccccc2n2c(-c3ccc(Cl)cc3)nnc12,10.7%
Cc1ccc(NC(=O)c2nnn(-c3cccc(C(F)(F)F)c3)c2N)cc1,0.2%
O=C(COc1coc(CN2CCc3ccccc3C2)cc1=O)Nc1cccc(Cl)c1,21.3%
O=S(=O)(c1ccccc1)c1nc(-c2ccccc2)oc1NCc1cccnc1,-0.4%
C1=C[C@@H]2CCN(Cc3ccccc3)Cc3cccc(c32)C1,17.5%
O=C(COC(=O)COc1ccccc1)Nc1ccc(S(=O)(=O)N2CCOCC2)cc1,-22.4%
CCC(=O)Nc1ccc(NC(=O)C23CC4CC(CC(C4)C2)C3)cn1,7.3%
CCN(CC)c1ccc(C(=O)NCc2ccc3c(c2)CCN3C(=O)c2cccc(C)c2)cc1,22.7%
CCn1cc(C(=O)NCCN(C)CCc2ccccc2)c(=O)c2cc(S(=O)(=O)N(C)C)ccc21,-7.0%
CCn1nnc2c(N3CCCC3)ncnc21,?
O=C(Nc1ccc2c(c1)OCO2)C1CCCCC1,16.4%
CCN(CC)CC(=O)Nc1ccccc1SCC(=O)Nc1ccsc1C(=O)OC,-14.8%
CC1(C)Cc2c(c(N3CCOCC3)nc3sc4c(=O)[nH]cnc4c23)CS1,2.1%
COc1ccc(NC(=O)Nc2nnc(N3CCCCC3C)s2)cc1OC (stereo not drawn),-12.6%
O=C(NCC(c1ccc2c(c1)OCO2)N1CCOCC1)c1ccccc1F (stereo not drawn),4.7%
CC1CCCC(NC(=O)CCNS(=O)(=O)c2ccc(Br)cc2)C1C (stereo not drawn),-13.2%
COCc1cc(C)nc2sc3c(=O)n(Cc4ccco4)nnc3c12,0.3%
Cn1cc(P(=S)(N2CCOCC2)N2CCOCC2)cc1P(=O)(N1CCOCC1)N1CCOCC1,?
CC[C@H](C)[C@H](NC(=O)[C@@H](N)CCC(=O)O)C(=O)N[C@@H](CC(C)C)C(=O)N[C@@H](CC(=O)O)C(=O)N[C@H](C(=O)N1CCC[C@H]1C(=O)N[C@@H](CO)C(=O)N[C@H](C(=O)O)[C@@H](C)O)C(C)C,8.2%
O=c1o[nH]c(-c2ccccc2)c1C1=NCCCCC1,7.9%
COc1ccccc1CCNC(=O)c1cc(COc2cccc(C(F)(F)F)c2)on1,-10.6%
CCN(CC)CC(O)Cn1c2ccccc2c2ccccc21 (stereo not drawn),7.2%
Clc1ccccc1-c1nnc2sc(-c3ccco3)nn12,4.6%
CC(C)(Oc1ccc(Cl)cc1)C(=O)NCc1ccco1,?
Cc1ccc(/C(N)=N/OC(=O)CCCc2ccccc2)cc1,6.6%
COC(=O)Nc1ccc(S(=O)(=O)N2CCC(C(=O)N3CCCC(C)C3)CC2)cc1 (stereo not drawn),4.6%
CN(C(=O)c1cccc(NC(=O)Cc2ccc(NC(=O)C3CCCN(C(=O)C4CCC4)C3)cc2)c1)C1CCC1 (stereo not drawn),6.5%
O=C(c1cc2ccccc2oc1=O)N(Cc1ccco1)CC1CCCO1 (stereo not drawn),-8.2%
CC(=O)Nc1ccc(NC(=O)c2ccc(CN3CCc4ccccc4C3)cc2)cc1,4.9%
CCOc1ccc(NC(=O)CSc2cn(CC(=O)N3CCOCC3)c3ccccc23)cc1,10.1%
CCOC(=O)Cc1csc(NC(=O)c2cccc(Cl)c2)n1,-0.9%
COc1cccc(C(=O)Nc2ccc(-c3nc4ccccc4o3)c(O)c2)c1,12.1%
CCCCOc1ccc(C(=O)N/N=C/c2ccc(OCCN3CCCCC3)c(OC)c2)cc1,-9.2%
O=C1C(NS(=O)(=O)c2cccs2)=C(N2CCN(c3cccc(C(F)(F)F)c3)CC2)C(=O)c2ccccc21,-14.3%
CCS(=O)(=O)c1ccc2c(c1)N(S(=O)(=O)c1cccs1)CC(C(=O)O)O2 (stereo not drawn),-1.5%
CCOc1ccccc1CNS(=O)(=O)c1ccc2c(c1)CCCN2C(C)=O,-1.6%
CCCCNC(=O)OCCSCCS(=O)(=O)c1ccc(Cl)cc1,8.3%
O=C(NNc1c2ccccc2nc2ccccc12)C12CC3CC(CC(C3)C1)C2,10.9%
COc1ccc(-n2cnc3ccccc32)cc1,-9.4%
O=C(NCc1ccccc1Br)c1ccncc1,18.5%
COc1cc2nc(CCc3ccccc3)oc(=O)c2cc1OC,-10.5%
Cc1ccccc1C1=NC(c2ccc(F)cc2F)ON1 (stereo not drawn),12.5%
CN(Cc1cccc(-n2cccn2)c1)C(=O)CCc1nnc(C2CCCCC2)o1,-7.1%
C=CCNC(=O)COc1ccc(Br)cc1Cl,10.5%
O=C(NCc1cccnc1)c1ccc(CS(=O)(=O)c2ccc(Br)cc2)o1,-16.5%
O=c1[nH]c(CCl)nc2cc(-c3ccc(F)cc3)sc12,-3.9%
COC(=O)C(NC(=O)c1ccccc1Cl)(Nc1ncc(S(=O)(=O)c2ccc([N+](=O)[O-])cc2)s1)C(F)(F)F (stereo not drawn),7.6%
COc1ccc(CNC(=O)CC(NC(N)=O)c2ccccc2Cl)cc1OC (stereo not drawn),0.9%
CCNc1nc(Oc2ccc(Cl)cc2Cl)cc(C(F)(F)F)n1,9.9%
Cc1cccc(C(=O)Nc2cc(Cl)ccc2-n2cncn2)c1[N+](=O)[O-],-8.3%
Cc1ccc2c(c1)N(CCCC(=O)NCc1cccc(F)c1)C(=O)CO2,9.8%

# Next part
SMILES,VDR inh
Cn1c(=O)cc(OCCCC(=O)NC2CCCC2)c2ccccc21,-4.6%
O=S(=O)(Nc1ccccc1Cl)c1ccc2[nH]c(=S)oc2c1,?
CC(C)(C)c1ccc(C(=O)NNc2ncccc2-n2cccc2)cc1,-2.5%
COC(=O)c1ccccc1NC(=O)Cn1c(CCC(=O)O)ccc1-c1cccs1,-7.1%&-9.7%
N=C(N)N1Cc2ccccc2C(O)C1 (stereo not drawn),5.7%
COC(=O)CSc1nc2sc3c(c2c(=O)[nH]1)CCC3,-0.5%
COc1ccc(OC)c(C(=O)COC(=O)C2CC3CCCC(C2)C3=O)c1 (stereo not drawn),-7.8%
Cc1cc(=O)oc2cc(OCC(=O)c3ccccc3)ccc12,0.7%
Cc1cc(NC(=O)c2ccc3c(c2)OCO3)ccc1NC(=O)c1ccco1,4.5%
CCCC(C)NC(=O)C1CCN(C(=O)C2CC(=O)N(c3ccc(C)cc3)C2)CC1 (stereo not drawn),3.5%
CC1CCN(c2ccc(NC(=S)NC(=O)c3ccco3)cc2)CC1,-6.7%
CS/C(=C\[N+](=O)[O-])Nc1ccc(F)cc1,-28.4%
COc1cc(C(C2C(=O)CC(C)(C)CC2=O)C2C(=O)CC(C)(C)CC2=O)ccc1OC(C)=O,?
COc1ccccc1CNC(=O)c1cc(-c2ccccc2)nn1CC1CC(c2cccnc2)=NO1 (stereo not drawn),-12.9%
Cc1ccc(C(=O)c2oc3ccccc3c2NC(=O)c2cc(=O)c3cc(C)ccc3o2)cc1,9.3%
C/C(=N/Nc1ccc(C(=O)c2c(C)cc3ccccn23)cc1[N+](=O)[O-])c1ccc(O)cc1,21.3%
COc1ccccc1OCC(=O)Nc1nc2c(s1)CCCC2,-19.2%
Nc1ccc(-c2nnc(-c3ccc(-c4ccccc4)cc3)o2)cc1,?
COc1ccc(-n2nc3c(c2NC(=O)C2CC2)CS(=O)(=O)C3)cc1,5.7%
O=C(NC1CCCc2ccccc21)c1cc(Cl)ccn1 (stereo not drawn),12.1%
Cc1cc2ncc(C(=O)N=CN(C)C)cn2n1,28.3%
COc1ccc(NC(=O)COC(=O)CCc2ccccc2)c(OC)c1,-9.1%
Cc1ccc(CSc2ccc(-c3ccc4c(c3)OCO4)nn2)cc1,-21.3%
CCOc1ccc(-n2c(C)c(C(C)=O)c3cc(OCC(N)=O)ccc32)cc1,-10.9%
COc1cc(/C=N/NC(=O)c2cc(C)oc2C)ccc1O,17.4%
O=C(CSCc1ccc(Cl)cc1)NCC1CCCO1 (stereo not drawn),6.6%
O=C(CCC(=O)N1CCN(S(=O)(=O)c2ccccc2)CC1)c1cccs1,9.9%
O=C(c1ccco1)N1CCN(C(c2ccc(F)cc2)c2nnnn2CC2CCCO2)CC1 (stereo not drawn),2.1%
COc1cc(/C=C/C(=O)c2c(O)ccc3c(C)cc(=O)oc23)ccc1O,-7.4%

# Of the compounds above, these contain a tert-butyl group.
SMILES,VDR inh
CC(C)(C)OC(=O)NCCCCCNC(=O)c1nc[nH]c1C(=O)NCC(=O)OCc1ccccc1,-3.5%
CC(C)(C)c1ccc(C(=O)NNc2ncccc2-n2cccc2)cc1,-2.5%

# Bioassay records as filed in PubChem.
